Screening data: PubChem, National Center for Advancing Translational Sciences (NCATS)
CtBP-E1A blk: qHTS Assay for Inhibitors of the CtBP/E1A Interaction; CtBP / adenovirus E1A interaction (AlphaScreen); AID 651724, 2012; activity change, % (no concentration beside the values); AlphaScreen GST-E1A/His-CtBP binding, 1536-well; stronger effect = lower value; control for the full effect not named in the record; 340,000 compounds, 0.49% hits; in the data active means activity change below about -65%; inconclusive means about -30% to -65%; inactive means above about -30%; also: % is scaled to controls: 0 for no effect and ±100 for the full control effect
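Steps: dispense buffer (Tris pH 8.0, NaCl 300 mM, TCEP 1 mM, BSA, Tween 20); add 5X protein mix (GST-E1A, His-CtBP, 125 nM each); pin 23 nL compound; 2 h at 37 °C, dark; add 5X beads (50 ug/mL); 1 h; read.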
ClpP mod: qHTS Assay for Activators of ClpP | Potency, µM (doses to about 57.5 µM), for the others: at the top dose activity change, negative = active | purified B. subtilis ClpP, FRET peptide cleavage, 20 min | 340,000 compounds, 1.9% hits; active = well fitted falling curve with a large enough effect; inconclusive = small, poorly fitted or top-dose-only effect; inactive = no such curve, though single readings can be large or run the other way; also: potency is read from the fitted curve at half-maximal effect; the source files actives as falling curves though it sought activators and does not explain the sign; nearly all actives have a fitted effect of over 65% in size; many hits overshoot -100%
Target sequence (P80244 whole entry, looked up): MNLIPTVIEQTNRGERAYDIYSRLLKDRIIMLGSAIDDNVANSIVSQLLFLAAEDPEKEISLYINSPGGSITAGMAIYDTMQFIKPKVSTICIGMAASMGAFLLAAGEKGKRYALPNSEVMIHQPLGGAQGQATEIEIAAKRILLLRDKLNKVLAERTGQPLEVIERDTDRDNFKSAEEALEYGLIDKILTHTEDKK
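Buffer: 100 mM Tris/HCl pH8, 100 mM KCl, 0.05% low protease BSA, 2.5% glycerol, 0.01% Tween-20. ClpP 10 microg/mL final; 20 min RT; delta FRET normalized to ADEP and DMSO controls.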
Menin MLL FP FL: qHTS Assay for Inhibitors Targeting the Menin-MLL Interaction in MLL Related Leukemias: Competition With Fluorescein Labeled MLL-derived Peptide. Fluorescence polarization, fluorescein-MLL peptide displacement from menin. 290,000 tested, under 10 active. AID 1766, 2009. FP activity change, % at 61.4 µM; inconclusive = falling polarisation curve, or a change in total fluorescence; inactive = total fluorescence flat and polarisation flat or rising; no compound was filed as active; the % refers to the polarisation; negative = inhibition;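 also: % of control where 0% means no effect; inhibitors lower the polarisation; unlabelled MLL peptide was the positive control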
Sfp inh: qHTS Assay for Inhibitors of Bacillus subtilis Sfp phosphopantetheinyl transferase (PPTase). 4'-phosphopantetheinyl transferase ffp (Bacillus subtilis), Q9F4F7. Biochemical Sfp PPTase activity, qHTS. Potency, µM, inactives show max response, negative = inhibition, actives largely listed as inhibitors. 310,000 compounds, 3.5% hits. AID 1490, 2009; active = well fitted inhibition curve with a large enough effect; inconclusive = small, poorly fitted or top-dose-only effect, or another doubt; inactive = no such curve, though single readings can be large or run the other way;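 also: the enzyme is Sfp with the accession as filed and its product quenches rhodamine fluorescence; potency is read from the fitted curve at half-maximal effect; 0% = enzyme reaction without inhibitor and -100% = no enzyme wells; top concentration of the series not given in the record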
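Fluorescence-quenching assay with 15 nM Sfp, 5 uM rhodamine-CoA and 12.5 uM BHQ-2-labelled ybbR peptide in pH 7.6 Hepes/MgCl2 buffer. Enzyme was pre-incubated with compound for 15 min at room temperature. Rate was taken from the 30-min fluorescence change (525/598 nm).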
gsp antagonist: qHTS for Antagonists of gsp, the Etiologic Mutation Responsible for Fibrous Dysplasia/McCune-Albright Syndrome: qHTS; gsp-mutant cells, cAMP HTRF, 30 min; control for the full effect not named in the record; Potency, µM (doses to about 76.9 µM), without a hit: at the highest dose activity change, negative = inhibition, hits mostly inhibitors; 340,000 compounds, 0.4% hits; active = falling curve of any shape with a large fitted effect; inconclusive = falling curve, mostly with a smaller effect; inactive = flat or rising curve; cell line not stated here;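 also: intracellular cAMP measured with PDE inhibitor Ro 20-1724 present during compound exposure; potency is read from the fitted curve at half-maximal effect; % is scaled to controls: 0 for no effect and ±100 for the full control effect; nearly all actives have a fitted effect of over 65% in size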
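Cells, 2000/well, grown 16–24 h in DMEM 10% FBS with 0.5 mg/ml G418, then compounds plus […] (300 uM addition stock), 30 min at 37C. cAMP read by HTRF (cAMP-d2 and anti-cAMP antibody-K in lysis buffer) after 30 min RT.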
gsp ag: qHTS for Agonist of gsp, the Etiologic Mutation Responsible for Fibrous Dysplasia/McCune-Albright Syndrome: qHTS; Potency, µM (highest dose often 76.9 µM), for inactives: top-dose activation (cAMP increase), usual class: activators; 340,000 compounds, 0.13% hits; gsp mutant cells, cAMP HTRF, 30 min; control for the full effect not named in the record; active = well fitted activation curve with a large enough effect; inconclusive = small, poorly fitted or top-dose-only effect, or another doubt; inactive = no such curve, though single readings can be large or run the other way; cell line not stated here;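 also: phosphodiesterase inhibitor Ro 20-1724 added with compounds to block cAMP breakdown; potency is read from the fitted curve at half-maximal effect; nearly all actives have a fitted effect of over 60% in size; about a fifth of the inactives were tested at one dose only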
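Cells in DMEM/10% FBS with G418 were pretreated with compounds in DMSO plus […] (300 uM stock) for 30 min at 37C. cAMP was measured by HTRF (cAMP-d2 plus anti-cAMP antibody-K) after 30 min at room temperature.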
TRPV1 PAM: HTS Assay for Compounds that Act as Potentiators of the Vanilloid Receptor 1. potentiation, % at 8.33 µM. 320,000 compounds, 0.02% hits. TRPV1-expressing cells, Fluo-8 calcium influx, capsaicin EC20 potentiation; host cell line not named in the record; control for the full effect not named in the record. Transient receptor potential cation channel subfamily V member 1 (Homo sapiens), Q8NER1. AID 540277, 2011; active means potentiation above 80%; inconclusive means 30% to 80%; inactive means below 30%; also: 0% is about no effect
Target sequence (Q8NER1 whole entry, looked up): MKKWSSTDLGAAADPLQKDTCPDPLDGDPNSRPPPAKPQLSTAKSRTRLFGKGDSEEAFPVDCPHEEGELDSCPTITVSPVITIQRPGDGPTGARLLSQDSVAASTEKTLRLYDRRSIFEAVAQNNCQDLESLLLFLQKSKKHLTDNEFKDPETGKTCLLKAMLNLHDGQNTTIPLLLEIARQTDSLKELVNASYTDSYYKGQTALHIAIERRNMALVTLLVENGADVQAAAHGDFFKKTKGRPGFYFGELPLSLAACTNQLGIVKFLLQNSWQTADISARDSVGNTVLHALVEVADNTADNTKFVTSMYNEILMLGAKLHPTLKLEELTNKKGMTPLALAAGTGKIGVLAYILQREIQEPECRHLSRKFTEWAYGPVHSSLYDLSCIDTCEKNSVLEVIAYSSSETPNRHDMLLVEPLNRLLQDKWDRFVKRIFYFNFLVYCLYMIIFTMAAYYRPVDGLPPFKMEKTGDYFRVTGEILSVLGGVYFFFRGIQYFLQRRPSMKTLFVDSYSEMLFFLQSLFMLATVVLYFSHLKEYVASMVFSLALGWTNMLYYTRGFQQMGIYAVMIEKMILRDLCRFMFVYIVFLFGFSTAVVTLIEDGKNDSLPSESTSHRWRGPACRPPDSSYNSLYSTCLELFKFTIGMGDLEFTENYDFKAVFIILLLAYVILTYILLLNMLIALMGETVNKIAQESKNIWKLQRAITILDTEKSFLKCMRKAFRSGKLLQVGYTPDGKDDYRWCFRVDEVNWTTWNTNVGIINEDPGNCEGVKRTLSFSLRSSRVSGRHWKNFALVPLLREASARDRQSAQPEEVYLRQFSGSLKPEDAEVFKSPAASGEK
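TRPV1-expressing cells were cultured overnight at 35.5C and loaded with Fluo-8 calcium dye for 40 to 90 min at room temperature. After a 10 s baseline, compound was added and calcium influx was read kinetically for 3 min (ex 480/em 520 nm).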
Starred values were filed as active, the others as inactive; ? = inconclusive; nt = no result given; [ ] = another dose, or the depositor's remark.

SMILES | CtBP-E1A blk | ClpP mod | Menin MLL FP FL | Sfp inh | gsp antagonist | gsp ag | TRPV1 PAM
CSc1ncccc1C(=O)Nc1ccc(S(=O)(=O)Nc2nccs2)cc1 | 1 | -0.9% | 4.4 | 6% | 7% | -4% | 8
COc1c2c(nc3occc13)C(CCC(C)(C)O)(OC)C(O)CC2 (configuration not stated) | -4 | -3.6% | -3.3 | 16% | 11% | 0% | -18
CCC(=O)OCCNc1nc(-c2ccccc2)nc2ccccc12 | -13 | nt | 0.2 | -20% | -22% | -4% | 6
CCOC(=O)c1sc(NC(=O)c2ccc(S(=O)(=O)N3CCCCC3)cc2)nc1-c1ccccc1 | -5 | ? | 2.1 | -4% | -1% | ? | -50
Cc1cc(C2N=C(N)Nc3nc4ccccc4n32)c(C)n1-c1ccccc1Cl (configuration not stated) | 8 | -2.0% | 2.8 | 2.8µM* | 13% | -2% | 28
CCOC(=O)C(C(=O)OCC)C(Nc1ccc(Br)cc1)c1ccccc1 (configuration not stated) | 31 | 1.7% | 0.4 | -4% | 18% | 8% | -9
Cc1ccc(OCC(=O)NCCNC(=O)c2cccnc2)cc1C | 3 | nt | 4.8 | 7% | 16% | 13%[15.4 µM] | -2
Cc1ccc(C(=O)N/C(=C\c2sccc2C)C(=O)NCc2ccncc2)cc1 | 12 | -10% | 0.0 | 0% | -28% | 3%[15.4 µM] | -10
CC(=O)c1cccc(NC(=O)CN(C)Cc2ccc(OC(F)F)cc2)c1 | 0 | nt | 3.2 | ? | 6% | 12%[15.4 µM] | 28
Cc1ccccc1C(=O)Nc1ccnn1C1CCN(Cc2ccccn2)CC1 | 0 | -6.3% | nt | -2% | -1% | 16% | -3
COc1ccc(N2CCN(Cc3nc(N)nc(Nc4ccc(C)c(Cl)c4)n3)CC2)cc1 | ? | 4.2% | 3.7 | -3% | 5% | -5% | 7
Cc1ccccc1NC(=O)c1c(C)[nH]c(=S)c(C#N)c1-c1ccco1 | -4 | 14µM* | 16 | 56µM* | -4% | ? | 5
CC(=O)Nc1ccc(S(=O)(=O)N2CCN=C2SCc2cccnc2)cc1 | nt | 0.8% | -3.9 | -7% | -4% | -56%[inhibitor] | -14
COc1ccc(S(=O)(=O)N2CCN(C)CC2)c2ccccc12 | 0 | -0.5% | 1.8 | 6% | 6% | 13% | -9
Cc1ccc(N2C(=O)N3[C@H](c4ccc(Cl)cc4)[C@@H]4C(=O)N(C5CCCCC5)C(=O)[C@@H]4[C@]3(Cc3ccccc3)C2=O)cc1 | -2 | 1.4% | 2.7 | 19% | -4% | nt | 14
COc1ccc(C(=O)SC2=NCCS2)cc1 | 3 | 0.6% | 1.0 | -1% | 9% | -6% | 19
Cc1ccc2c(c1)[C@H]1[C@H](CO2)[C@H](c2ccccc2)[C@]2(C)C(=O)Nc3ccccc3C(=O)N12 | -8 | -8.4% | nt | nt | -4% | -6% | nt
CN(C)c1ccc2c(c1)OC(N)=C(C#N)C2c1cccc(F)c1 (configuration not stated) | -15 | -2.2% | ? | ? | 21% | 13% | -14
CN1CCc2nc(SCC(=O)Nc3ccc(F)cc3)c(C#N)cc2C1 | nt | nt | -0.5 | -20% | nt | nt | 1
COc1ccccc1NC(=O)c1c(N=Cc2ccccc2O)cnn1C | nt | nt | -0.6 | -29% | nt | nt | -1
COC(=O)c1ccc(NC(=O)C(=O)N2CCCC2)cc1 | -2 | -2.1% | -1.2 | -4% | -11% | 27% | 17
O=C(Cc1cccc2ccccc12)N1CCCc2ccccc21 | 3 | -0.6% | 3.2 | -9% | ? | -1% | -12
CC(C)(C)OC(=O)C[C@H]1C/C=C\C[C@H](CC(=O)N[C@H](CO)Cc2ccccc2)C(=O)N2CCC[C@@H]2COC1=O | 8 | -0.6% | nt | nt | 0% | nt | nt
Cc1cc(C)n(-c2nc3ccccc3c3nc(C)nn23)n1 | -24 | -6.8% | -1.6 | 7% | -5% | 14% | -4
O=C(CNCc1ccco1)Nc1ccccc1-n1cccc1 | 11 | 0.4% | -2.4 | -5% | 3% | 3% | ?
The listing continues.
SMILES | CtBP-E1A blk | ClpP mod | Menin MLL FP FL | Sfp inh | gsp antagonist | gsp ag | TRPV1 PAM
CCOC(=O)C1CCCN(C(=O)C2CCN(S(=O)(=O)N3CCC4(CC3)OCCO4)CC2)C1 (configuration not stated) | 3 | -0.4% | -1.0 | 7% | -1% | -16% | -12
CC(C)Cc1ccc(CN2CCCC(NC(=O)CCN3CCOCC3)C2)cc1 (configuration not stated) | 0 | 0.6% | nt | 2% | 12% | -13% | -2
CCCn1nnc2sc3c(c2c1=O)CCC(C)C3 (configuration not stated) | 8 | ? | 1.0 | 4% | 0% | 25% | 5
COC(=O)NNC(=O)c1ccccc1OC | 6 | -0.8% | -1.3 | -16% | 4% | 20% | -4
Cc1ccsc1/C=N/NC(=O)c1ccncc1 | -13 | nt | -0.1 | -10% | -10% | -3%[15.4 µM] | 12
O=C(c1cccnc1)N1c2ccccc2Sc2ccccc21 | 1 | nt | 1.6 | 1% | -6% | 5%[15.4 µM] | ?
O=C(NNC(=O)c1ccc(-n2cncn2)c([N+](=O)[O-])c1)c1ccccc1 | 11 | -0.8% | nt | nt | -1% | 6% | -7
Cc1nc2c(C(=O)NCCC3=CCCCC3)c[nH]n2c(=O)c1Cl | -5 | ? | 1.0 | -20% | -6% | 0% | -1
Cc1cc(C)n2nc(SCC(=O)N(CC(C)C)c3c(N)n(CC(C)C)c(=O)[nH]c3=O)nc2n1 | -2 | -1.5% | 0.1 | 13% | 7% | 4%[15.4 µM] | 2
Cc1ccc(C(c2nnnn2CCC(C)C)N2CCN(C)CC2)cc1 (configuration not stated) | 1 | 1.4% | 2.0 | -5% | 0% | 2% | -3
CCc1ccc(CN2CCN(C(=O)c3ccco3)CC2)cc1 | 0 | -1.9% | 11 | ? | 3% | -30%[inhibitor] | -3
COc1ccc(NC(=O)CN2CCN(c3ccc(F)cc3)CC2)cc1 | -10 | nt | 9.4 | -3% | 3% | 14% | 1
CCCCC(CC)CNC(=O)C(Cc1ccccc1)NS(=O)(=O)c1ccc2c(c1)CCC(=O)N2 (configuration not stated) | 4 | 1.6% | -0.4 | 7% | -10% | 22% | 2
Cc1nnc2n(-c3ccccc3)c(=O)c3c4c(sc3n12)CC(C)CC4 (configuration not stated) | -4 | -5.3% | 2.2 | 5% | -13% | ? | -20
C=CCNc1nc(NC(C)(C)CO)nc(OCC)n1 | 1 | -0.2% | -4.3 | 15% | 11% | 0% | -4
CCN(CC)CCC(=O)NC(C)(C)Cc1ccc(O)cc1 | 5 | -0.1% | -6.4 | 8% | 15% | 26% | 26
CCOC(=O)CN1CC23C=CC(O2)C(C(=O)NC2CCCCCC2)C3C1=O (configuration not stated) | 4 | -0.7% | -2.7 | 8% | 13% | -32%[inhibitor] | nt
O=C(NC(Cc1c[nH]c2ccccc12)C(=O)NCc1ccc(F)cc1)OCc1ccccc1 (configuration not stated) | nt | -3.8% | -5.7 | 26% | -27% | 0% | 4
COCCn1c(-c2ccc(F)cc2)nc2oc3cc(OC)ccc3c(=O)c2c1=O | -2 | -3.8% | 6.4 | -1% | -15% | -1% | -5
Cc1cc(N2O[C@H]3C=C[C@@H]2C3)no1 | 6 | 1.7% | nt | nt | 12% | nt | nt
CC1CC(C)CN(C(=O)Nc2ccc(Br)cc2)C1 (configuration not stated) | 7 | 1.6% | 1.6 | 12% | 1% | ? | -10
CC(=O)c1c(C(C)=O)c(C)n(NC(=O)c2ccccc2O)c1C | -6 | -18% | 4.0 | 4% | -11% | ? | -1
Cc1nc(Cc2nnc(SCc3nc(N)nc(Nc4ccccc4C)n3)o2)cs1 | 0 | -1.1% | 4.4 | 20% | 28% | 18% | 10
C=CCn1c(COc2ccc(CC)cc2)nnc1SCC(=O)NC1CCS(=O)(=O)C1 (configuration not stated) | 7 | 0.7% | 4.3 | 12% | 1% | -10% | 4
Cc1cc(Oc2ccc(Br)cc2)nc(SCC(=O)c2ccccc2)n1 | 15 | -9.6% | 2.3 | -7% | -1% | -28% | -2
(listing goes on)
SMILES | CtBP-E1A blk | ClpP mod | Menin MLL FP FL | Sfp inh | gsp antagonist | gsp ag | TRPV1 PAM
Cc1cc(C(=O)NC2CCCc3c2cnn3-c2cc(F)cc(F)c2)nn1C (configuration not stated) | -4 | 0.7% | nt | 11% | 0% | -5% | -14
O=C(c1cc(Br)ccc1Cl)N1CCCC1 | -8 | nt | -2.3 | 16% | 6% | 5% | 12
CC(=O)c1cccc(-n2nnnc2SCC(=O)NNC(=O)C(C)C)c1 | nt | 0.6% | -0.1 | 4% | -2% | -60%[inhibitor] | 2
COc1ccc(CN2CCN(Cc3cccn3-c3ncccn3)CC2CCO)c(C)c1C (configuration not stated) | nt | -1.0% | -3.6 | -1% | 6% | 7% | 9
COC(=O)c1c(C)oc2ccc(N(C(=O)c3ccncc3)S(=O)(=O)c3ccccc3)cc12 | -22 | -1.0% | 3.1 | -7% | -4% | -27% | -4
CCSc1nnc(-c2c[nH]c3ccccc23)o1 | 0 | nt | 5.2 | -7% | -1% | ? | -28
O=C(COC(=O)/C=C/c1cccc(F)c1)Nc1ccc2[nH]c(=O)[nH]c2c1 | -6 | 1.3% | nt | nt | 14% | -37%[inhibitor] | 0
CC(C)(c1cc(Br)c(O)c(Br)c1)c1cc(Br)c(O)c(Br)c1 | -2 | 1.5% | nt | nt | 3% | nt | 1
